BJeLR lethal: BJeLR cell viability loss | BJeLR (HRASV12) viability, CellTiter-Glo ATP luminescence, 48 h; reference of the scale not given here | inhibition, % (test concentration not listed) | 0.17% of 300,000 active | AID 1554;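 active means replicate mean above 50%; inconclusive means above 50% but judged a plate artefact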;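 further: 50 nL library stock added to about 25 µL; numbers are from one replicate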
PrP UTR inh: inhibition of PrP 5' UTR reporter expression; cell-based PrP 5' UTR mRNA reporter, plate reader; inhibition, % (concentration not given with the values); 0.35% of 340,000 active;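 active means every replicate at 50% or more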;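 further: 0 = median of the neutral control wells; tested in H4 reporter cells; numbers are from one replicate; inactives centre near -14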
ugtP null kill: compounds lethal to S. aureus RN4220 ugtP deletion mutant. AID 1259309. OD600 growth, 16 h; some inactives read as strong as hits. 0.54% of 330,000 active. growth inhibition, % (no concentration beside the values);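 active means z-score under -3 and OD600 up to 0.15 on both plates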;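 further: plate controls were untreated wells for no effect and antibiotic for full effect; wells of about 80 µL received 100 nL stock; the first replicate is given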
Autofluor counter: flagged as autofluorescent in microsphere protease counterscreen; compound autofluorescence counterscreen, microsphere flow cytometry; active compounds read high; fluorescence intensity (test concentration not listed); 3.1% of 360,000 active; AID 624483;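 active means at least 3 SD above the mean of all compounds, about 16000 in these data; inconclusive means too few beads counted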;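 further: 100 nL of 1 mM stock went into each well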
Mtb hypoxia inh: inhibitors of hypoxia-regulated fluorescent reporter in Mycobacterium tuberculosis | M. tuberculosis hypoxia-regulated fluorescent reporter, fluorescence | fluorescence inhibition, % (test concentration not listed) | 0.1% of 300,000 active | AID 1159583;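 active means 35 to 45% if threefold the growth effect, above 45% if 1.5-fold the growth effect; inactive means the rest, general growth blockers included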;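 further: wells of about 50 µL received 100 nL stock; 0% = vehicle wells and 100% = reference inhibitor wells; whole bacteria with a GFP reporter of the hypoxia response; strong numbers were not always called active; many hits fall short of the cut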
RN4220 kill: S. aureus RN4220 growth inhibition. inhibition, % (test concentration not listed). OD600, 16 h. 0.33% of 330,000 active;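 active means z-score of -3 or lower and OD600 up to 0.18 on both plates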;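 further: plate controls were untreated cells for no effect and reference antibiotic for full effect; stock transfer was 100 nL into about 80 µL; one replicate is shown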
Mtb hypoxia inh growth: further read-out of Mtb hypoxia inh, marked with its call; growth inhibition, %; measured here: M. tuberculosis growth (absorbance);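 0% = vehicle and 100% = reference antibiotic; read after six days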
Starred values were filed as active, the others as inactive; u = inconclusive; x = not tested or not shown. Rows were taken by chance; 4% or so of the library scored in one or more.

SMILES	BJeLR lethal	PrP UTR inh	ugtP null kill	Autofluor counter	Mtb hypoxia inh	Mtb hypoxia inh growth	RN4220 kill
COC(=O)c1ccc(C)c(NS(=O)(=O)c2ccc(OC)c(OC)c2)c1	1	-33	-8	9150	-8	-2	-2.9
CCOc1ccc(S(=O)(=O)NCCC(=O)NCC2(N3CCCCC3)CCCCC2)cc1	-3	-4	-1	6292	2	2	2.0
O=C(CSc1ccc(-c2ccncc2)nn1)c1ccc(Cl)cc1	1	-11	3	3698	-3	-4	4.8
O=C(NCc1cccs1)C(=O)c1cn(CC(=O)N2CCCC2)c2ccccc12	x	-6	1	3278	11	-1	2.0
O=C(Nc1cc(Cl)ccc1N1CCOCC1)c1ccc(N2CCCC2=O)cc1	4	-44	1	u	1	6	-1.3
CN1CCc2c(sc3nc(SCC(=O)N4CCCCC4)n(-c4ccccc4)c(=O)c23)C1	-5	-7	-2	5746	-5	8	2.3
O=C(NN=C/C=C/c1ccc([N+](=O)[O-])cc1)c1cccs1	x	x	-9	x	4	10	3.2
COc1cc(/C=C(\C#N)c2nc3ccccc3[nH]2)ccc1OC(=O)c1ccco1	-2	-76	-8	2624	-6	2	6.0
COc1cc(OC)c(NC(=O)CNC(=O)Cn2ccc3ccccc3c2=O)cc1Cl	9	-1	-1	5630	3	5	-0.6
NC(=S)NN=C(c1ccccc1)c1ccccc1	-4	-9	2	3157	4	4	-1.1
CN1C(=O)NC(c2ccccc2)C2=C1CN(CCc1ccccc1)C2=O (configuration not stated)	0	-14	2	20821*	1	3	3.5
COc1ccc(C(=O)Oc2cccc(Nc3ncnc4ccccc34)c2)cc1OC	1	-18	5	9147	16	-1	5.5
COc1ccc2nc(C)c(C(=O)NN)cc2c1	2	-21	-3	2533	5	9	2.4
COc1ccc(C=NNC(=O)c2cc(-c3ccccc3OC(C)C)nc3ccccc23)cc1CN1CCOCC1	x	x	-1	x	3	6	1.0
CCOc1ccc(CCNC(=O)CCS(=O)(=O)c2ccc(C)cc2)cc1OCC	-1	-23	-6	3374	-15	-3	-1.6
O=C(Nc1ccccc1)N1CCC2(CC1)OCCO2	-1	-20	8	2208	17	5	3.7
CN(C)c1cc(N/N=C/c2ccccc2C(F)(F)F)nc(N(C)C)n1	0	-17	x	3177	x	x	x
CCOC(=O)c1nnn(-c2nonc2N)c1CSc1ccccc1	1	-23	-2	22923*	11	10	6.8
CCOc1ccc(S(=O)(=O)NC2CCCCC2C)cc1 (configuration not stated)	1	-12	-5	6475	-5	7	-0.8
O=C(Nc1ccc(Cl)c(Cl)c1)c1ccc(Cl)c(Cl)c1	0	-57	x	4726	x	x	x
Clc1ccc(N2CCN(c3ccnc(Cl)n3)CC2)cc1	5	-39	3	6108	13	-2	4.0
COc1ccc(CCNC(=O)CSC2=NS(=O)(=O)c3ccccc3N2)cc1OC	3	-15	2	4370	5	8	-0.6
COc1ccc(C2CC2/C(=N/O)c2ccccc2)cc1 (configuration not stated)	1	-43	x	3561	x	x	x
Cc1ccc(NC(=O)Cn2c(C)cc(C)c(C#N)c2=O)c(Cl)c1	1	-4	-2	23456*	-4	2	0.4
COc1ccc(NS(=O)(=O)c2cccc(NC(=O)CNC(C)=O)c2)cc1	-4	-10	0	4222	11	3	1.1
Next part.
SMILES	BJeLR lethal	PrP UTR inh	ugtP null kill	Autofluor counter	Mtb hypoxia inh	Mtb hypoxia inh growth	RN4220 kill
Cn1nnc2c(sc3nc(N4CCOCC4)c4c(c32)CCCC4)c1=O	-9	-10	5	3059	x	x	3.0
CC1CCCCC1NC(=O)CN1C(=O)NC(C)(c2cccc(Br)c2)C1=O (configuration not stated)	x	x	4	x	13	2	4.7
O=C(CCl)NC1(C(F)(F)F)C(=O)Nc2c1c(=O)[nH]c(=O)n2-c1ccccc1 (configuration not stated)	-8	-39	6	3714	0	7	3.1
O=C(Cc1ccc(Cl)cc1)NC1CCS(=O)(=O)C1 (configuration not stated)	4	-23	3	6052	1	2	-1.4
CCC(C)N(C(=O)CSc1nnc(C)n1C)C1CCS(=O)(=O)C1 (configuration not stated)	-6	-16	11	u	1	-2	5.1
COc1ccc(OCc2nnc(SCC(=O)N3CCCCC3)o2)cc1	-15	-8	4	5476	10	11	2.8
CCC(C)[C@H](NC(=O)C1CC(=O)N(c2ccc3c(c2)OCCO3)C1)C(=O)NC1CCCC1 (some centres not stated)	-1	-7	10	5176	6	6	2.9
Cc1cc(C)cc(-n2ncc3c2CCCC3NC(=O)CCCn2cncn2)c1 (configuration not stated)	-5	-9	1	5998	10	0	5.4
CCOC(=O)/C(C#N)=C/c1cn(CCOc2ccc(OC)cc2)c2ccccc12	-1	-9	-3	2802	-6	-7	-2.8
COc1ccc(CNC(=O)c2cccc3c2C(=O)N(CC2CCCO2)C3)cc1 (configuration not stated)	-1	-8	3	5991	4	-1	5.5
COC(=O)c1ccsc1NC(=O)c1ccc2c(c1)OCCO2	-5	-24	3	5655	2	4	13
COC(=O)c1[nH]c2ccc(C)cc2c1NS(=O)(=O)c1ccc(F)c(C)c1	1	-14	-6	3798	-5	12	5.6
CC(=O)Nc1nc(-c2ccc(Br)s2)cs1	2	-51	15	4426	x	x	0.1
O=C(NC1CCCN(CCc2ccccc2)C1)C1CCCC1 (configuration not stated)	6	-10	7	x	9	5	0.4
Cc1oc(-c2ccc(-c3ccccc3)cc2)nc1CN(CCO)C(C)C	2	-78	9	4044	16	9	0.1
O=C(Nc1ccc(NC(=O)c2ccccc2Br)cc1)c1ccccc1	4	-43	4	4385	2	-5	4.0
CCc1ccc(CN(C)C(=O)c2cc(COc3cccc4cnccc34)on2)cc1	15	-17	3	6106	1	-3	7.2
COc1cccc(C=NNc2ncnc3scc(-c4ccccc4)c23)c1O	x	x	46	x	-1	4	11
CCCS(=O)(=O)N1CCC(C(=O)NCCN(C)Cc2ccccc2)CC1	-2	-21	-5	3197	5	0	-15
CCOC(=O)N1CCC(NC(=O)C2CCCN(C(=O)N3CCOc4ccccc43)C2)CC1 (configuration not stated)	-2	-12	10	2478	4	8	-2.1
CSc1ccccc1NC(=O)CN(C)C(=O)CNc1ccc(C(F)(F)F)cc1[N+](=O)[O-]	x	-17	6	6167	7	6	1.6
COc1ccc(OC)c(/C=C2\SC(=S)N(NS(=O)(=O)c3ccc(C)cc3)C2=O)c1	-4	-5	-32	4388	5	-1	19
CCOc1ccc2c(c1)sc(=NC(=O)C1CC1)n2C	-3	-52	13	10591	16	9	3.6
Cc1cc(NC(=O)CSc2nnnn2C2CCCC2)no1	7	-83	16	7999	7	12	9.5
CCN(C[C@H]1N[C@@](C)(C(=O)OC)[C@H]2C(=O)N(C)C(=O)[C@@H]12)C(=O)Nc1ccccc1	x	-21	7	3433	0	5	1.7
Remaining list, next part:
SMILES	BJeLR lethal	PrP UTR inh	ugtP null kill	Autofluor counter	Mtb hypoxia inh	Mtb hypoxia inh growth	RN4220 kill
O=C(NCc1ccc2c(c1)OCO2)c1nc(S(=O)(=O)Cc2ccccc2F)ncc1Cl	28	-6	23	5261	7	-7	37
CS(=O)(=O)N(CC(=O)Nc1ccc(Cl)c(Cl)c1)C1CCCCC1	2	-5	-27	21686*	9	2	0.5
CCC(NS(=O)(=O)c1c(C)[nH]c(=O)[nH]c1=O)C12CC3CC(CC(C3)C1)C2 (configuration not stated)	-2	-7	-10	3272	x	x	14
Cc1nc(SCC(=O)NC2CCCCC2C)nc(C)c1C (configuration not stated)	x	-6	4	3687	11	6	2.1
CCNS(=O)(=O)c1ccc(CCC(=O)Nc2ccccc2)cc1	-8	-27	8	5273	9	5	5.6
COc1ccc(N=Cc2c(O)n(-c3ccc(OC)cc3)c(=O)c3ccccc23)cc1	-1	-3	4	3389	15	-1	5.6
O=C(N/N=C/c1ccc([N+](=O)[O-])cc1)c1c[nH]c2ccccc12	1	-32	x	4024	x	x	x
Cc1cc(C)n2nc(C(=O)N3CCCC(N4CCN(c5ccccc5C)CC4)C3)cc2n1 (configuration not stated)	-12	-13	-3	5872	-2	4	2.4
COC(=O)c1cc(NC(=O)CN(c2cccc(OC)c2)S(=O)(=O)c2ccccc2)ccc1Cl	4	-4	-8	2979	11	5	6.1
CC(CC(=O)Nc1ccc(Br)cc1F)S(=O)(=O)c1ccc2c(c1)NC(=O)CO2 (configuration not stated)	-7	-12	2	6587	15	4	1.2
Cc1cccc2c(C(=O)O)cc(-c3cccnc3)nc12	-2	-34	1	4460	1	-1	6.5
O=C(O)Cn1c(=O)c2c3c(sc2n(Cc2ccc(F)cc2)c1=O)CCCC3	3	-12	-8	3851	15	4	3.1
O=C1C2C(C(=O)N1c1ccc3c(c1)OCO3)C1C=CC2C12CC2 (configuration not stated)	3	-36	4	7514	2	1	3.0
CCOC(=O)N1CCC(N2CCCC(C(=O)c3cccc(OC(C)C)c3)C2)CC1 (configuration not stated)	-3	-19	5	3714	17	10	3.1
CS(=O)(=O)N(CC(=O)N1CCc2ccccc2C1)c1ccc2c(c1)OCO2	0	0	3	2245	x	x	-2.1
CC1=NN(C(=O)COc2ccccc2C)C(O)(c2ccc(Cl)cc2)C1 (configuration not stated)	14	-27	-1	8934	-3	7	4.9
CNc1nc(N)c([N+](=O)[O-])c(N2CCCCCC2)n1	-11	-15	-16	4239	-11	-9	14
CN(Cc1ccccc1)S(=O)(=O)c1ccc(Cl)c(C(=O)N2CCC(C(N)=O)CC2)c1	x	7	14	2958	6	4	4.7
CCn1c(O)c(/C=N/NC(=O)c2ccccc2)c(=O)n(CC)c1=S	-5	x	2	4135	-6	-6	1.7
CC(C)CCNS(=O)(=O)c1cc2c3c(c1)CCN3C(=O)CC2	-1	-5	-1	5962	9	3	0.9
Oc1ccc(/C=N/Nc2ccc3ccccc3c2)c(O)c1	-6	-27	x	4230	x	x	x
CN(C)S(=O)(=O)c1cccc(-c2cn3cccnc3n2)c1	-2	-15	3	4615	9	5	3.3
O=C(CNC(=O)c1cccnc1)N/N=C/c1cc(Br)c(O)c(Br)c1	11	-8	x	3653	x	x	x
O=C(CN1CCCC1c1cccs1)N1CCN(S(=O)(=O)c2ccccc2)CC1 (configuration not stated)	x	1	4	x	1	3	0.3
Cn1c(CCNC(=O)c2cccs2)n[nH]c1=S	1	-14	8	7557	14	0	1.5

The last 4 compounds of the part above are carried over, then new ones follow.
SMILES	BJeLR lethal	PrP UTR inh	ugtP null kill	Autofluor counter	Mtb hypoxia inh	Mtb hypoxia inh growth	RN4220 kill
CN(C)S(=O)(=O)c1cccc(-c2cn3cccnc3n2)c1	-2	-15	3	4615	9	5	3.3
O=C(CNC(=O)c1cccnc1)N/N=C/c1cc(Br)c(O)c(Br)c1	11	-8	x	3653	x	x	x
O=C(CN1CCCC1c1cccs1)N1CCN(S(=O)(=O)c2ccccc2)CC1 (configuration not stated)	x	1	4	x	1	3	0.3
Cn1c(CCNC(=O)c2cccs2)n[nH]c1=S	1	-14	8	7557	14	0	1.5
C[N+](C)(C)CCNC(=O)c1cc[n+](Cc2ccccc2)c(C=NO)c1	x	x	-1	x	-8	-2	2.9
N/C(=N\OC(=O)Oc1ccccc1)c1ccc(Br)cc1	-2	-8	4	3018	x	x	5.3
CCn1c(CNC(=O)C2CCCCC2)cc2ccccc21	-5	-25	3	3413	9	11	-0.7
CCOC(=O)n1c(=O)oc2cc(S(=O)(=O)N3CCOCC3)ccc21	-3	-27	8	7878	3	1	7.6
O=C1CC2(CCOCC2)Oc2ccc3ccccc3c21	-1	-22	-7	3807	9	7	3.4
COc1ccc(CNC(=O)C2CC=CC3CCN(Cc4ccccc4)C(=O)C32)cc1 (configuration not stated)	x	x	-1	x	7	6	3.3
CC(CNC(=O)c1cccs1)c1ccc([N+](=O)[O-])cc1 (configuration not stated)	0	-17	6	3396	15	13	3.6
COCCNC(=O)c1cc2c(s1)-c1ccc(Cl)cc1SC2	-1	x	-2	3966	7	1	-12

A draw from above in order of molar mass, low to high.
SMILES	BJeLR lethal	PrP UTR inh	ugtP null kill	Autofluor counter	Mtb hypoxia inh	Mtb hypoxia inh growth	RN4220 kill
CCn1c(CNC(=O)C2CCCCC2)cc2ccccc21	-5	-25	3	3413	9	11	-0.7
C[N+](C)(C)CCNC(=O)c1cc[n+](Cc2ccccc2)c(C=NO)c1	x	x	-1	x	-8	-2	2.9
CCOC(=O)n1c(=O)oc2cc(S(=O)(=O)N3CCOCC3)ccc21	-3	-27	8	7878	3	1	7.6
